TRPML1 blocker: qHTS for Inhibitors of the Human Mucolipin Transient Receptor Potential 1 (TRPML1). actives 0.02% (n = 390,000). AID 624415, 2012. TRPML1-inducible cells, Ca2+ dye fluorescence, FDSS; stronger effect = lower value; inhibition of EC80 agonist-evoked calcium signal. activity change, negative = inhibition, % (test concentration not listed); in the data active means activity change below about -50%; inconclusive means about -30% to -50%; inactive means above about -30%;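 further: stimulus is agonist 54-4 at its EC80 concentration; on the % scale 0 is the no-effect control and ±100 the full control effect; compound concentration not given in the record; the text of the record puts the active cut at -80%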
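TRPML1-DL cells, Tet-induced overnight (~16 h, 37 °C) at 1,500 cells/well, were loaded with Ca8 no-wash dye plus quencher for 45-90 min at room temperature. Compounds were pinned during FDSS kinetic reading; agonist 54-4 at EC80 (4 uM final) then added.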
TRPML1 ag: qHTS for Agonists of the Human Mucolipin Transient Receptor Potential 1 (TRPML1); actives 0.12% (n = 410,000); TRPML1-expressing cells, Ca2+ dye fluorescence, FDSS; host cell line not named in the record; reference of the full effect not given here; Mucolipin-1 (Homo sapiens), Q9GZU1; AID 624414, 2012; activation, % (test concentration not listed); in the data active = activation above about 50%; inconclusive = about 30% to 50%; inactive = below about 30%; further: 0% is about no effect; the text of the record puts the active cut at 80%
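Tet-induced TRPML1-DL cells, 1,500 per well, cultured overnight, were loaded with a no-wash Ca2+ dye for 45–90 min. Calcium fluorescence was recorded on the FDSS for 110 s after compound addition, before the EC80 agonist (4 uM 54-4) was added.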
CtBP-E1A blk: qHTS Assay for Inhibitors of the CtBP/E1A Interaction | AID 651724, 2012 | activity change, % (concentration not given with the values) | AlphaScreen GST-E1A/His-CtBP binding, 1536-well; stronger effect = lower value; control for the full effect not named in the record | actives 0.49% (n = 340,000) | CtBP / adenovirus E1A interaction (AlphaScreen); in the data active means activity change below about -65%; inconclusive means about -30% to -65%; inactive means above about -30%; further: on the % scale 0 is the no-effect control and ±100 the full control effect
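Protein mix (5X: 125 nM each GST-E1A, His-CtBP) was incubated with pinned compound 2 h at 37 deg C in dark, in 50 mM Tris pH 8.0 buffer with 300 mM NaCl. Glutathione donor and nickel acceptor beads followed; AlphaScreen signal read after 1 h.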
Six1-Eya2 blk: qHTS Assay for Inhibitors of the Six1/Eya2 Interaction; AlphaScreen GST-Six1/His-Eya2 binding, biochemical; stronger effect = lower value; control for the full effect not named in the record; actives 0.56% (n = 360,000); Homeobox protein SIX1 (Homo sapiens) + Protein phosphatase EYA2 (Homo sapiens), …; activity change, % (no concentration beside the values); AID 651725, 2012; in the data active = activity change below about -65%; inconclusive = about -30% to -65%; inactive = above about -30%; further: on the % scale 0 is the no-effect control and ±100 the full control effect; compound concentration not given in the record
Target sequence (O00167 whole entry, looked up): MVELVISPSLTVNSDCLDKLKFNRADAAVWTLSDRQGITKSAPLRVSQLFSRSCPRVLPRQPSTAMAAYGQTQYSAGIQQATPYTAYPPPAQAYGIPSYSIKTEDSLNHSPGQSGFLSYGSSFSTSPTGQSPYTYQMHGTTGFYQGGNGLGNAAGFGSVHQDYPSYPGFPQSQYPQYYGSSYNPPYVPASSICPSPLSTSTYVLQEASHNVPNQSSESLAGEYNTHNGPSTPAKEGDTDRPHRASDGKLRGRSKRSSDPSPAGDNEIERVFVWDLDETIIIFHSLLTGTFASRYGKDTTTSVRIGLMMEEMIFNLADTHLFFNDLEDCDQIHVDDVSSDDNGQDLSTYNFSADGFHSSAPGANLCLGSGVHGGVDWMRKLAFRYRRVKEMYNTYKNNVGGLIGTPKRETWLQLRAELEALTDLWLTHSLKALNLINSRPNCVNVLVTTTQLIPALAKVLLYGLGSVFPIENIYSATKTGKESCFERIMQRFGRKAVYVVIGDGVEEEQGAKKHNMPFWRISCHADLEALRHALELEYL
Target sequence (Q15475 whole entry, looked up): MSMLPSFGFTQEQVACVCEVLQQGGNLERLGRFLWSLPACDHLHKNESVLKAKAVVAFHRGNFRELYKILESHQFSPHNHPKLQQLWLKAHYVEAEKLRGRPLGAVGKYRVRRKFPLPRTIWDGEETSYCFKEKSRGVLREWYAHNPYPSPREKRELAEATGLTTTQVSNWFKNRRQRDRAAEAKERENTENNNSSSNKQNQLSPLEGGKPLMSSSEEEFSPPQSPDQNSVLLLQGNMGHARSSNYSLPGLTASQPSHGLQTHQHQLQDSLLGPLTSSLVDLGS
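Homogeneous AlphaScreen proximity assay pairing GST-Six1 with His-tagged Eya2 (added as 5X mix: 250 nM and 500 nM) in 50 mM Tris pH 8.0, 300 mM NaCl, 1 mM TCEP. Glutathione donor and nickel acceptor beads; 1 h, 37 °C, dark.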
TRPV1 PAM: HTS Assay for Compounds that Act as Potentiators of the Vanilloid Receptor 1. Transient receptor potential cation channel subfamily V member 1 (Homo sapiens), Q8NER1. TRPV1-expressing cells, Fluo-8 calcium influx, capsaicin EC20 potentiation; host cell line not named in the record; control for the full effect not named in the record. potentiation, % at 8.33 µM. actives 0.02% (n = 320,000); active means potentiation above 80%; inconclusive means 30% to 80%; inactive means below 30%; further: 0% is about no effect
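TRPV1-expressing cells were cultured overnight at 35.5C and loaded with Fluo-8 calcium dye for 40 to 90 min at room temperature. After a 10 s baseline, compound was added and calcium influx was read kinetically for 3 min (ex 480/em 520 nm).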
D2 potentiator: Beta-Arrestin HTS for Positive Allosteric Modulators of the Human D2 Dopamine Receptor: Potentiators. actives 0.23% (n = 360,000). potentiation, % (no concentration beside the values). D(2) dopamine receptor (Homo sapiens), P14416. DiscoveRx D2 beta-arrestin cells, luminescence, 90 min; 100% = 57 uM dopamine signal; active = potentiation of 50% or more; inconclusive = 30% to 50%; inactive = 30% or less;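 further: compound concentration not given in the record; tested on top of an EC20 dose of dopamine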
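PathHunter beta-arrestin assay in DiscoveRx D2 cells. Compounds were added with an EC20 of dopamine (50 nM final) for 90 min at 37 deg C. Luminescence was read 1 h after detection reagent, with 57 uM dopamine as the EC100 control.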
* hit, by the source's call; ? = inconclusive; . = not tested or not shown. An unsorted share of the library; about 0.95% have a hit in one of these screens.

Results follow in this order: TRPML1 blocker, TRPML1 ag, CtBP-E1A blk, Six1-Eya2 blk, TRPV1 PAM, D2 potentiator
> CCn1c(CNC(=O)C2CCCCC2)cc2ccccc21
  -14, -0.7, 5, 2, 3, 3
> Cc1ccc2nc(-c3cccnc3)cc(C(=O)Nc3ccccc3[N+](=O)[O-])c2c1
  -6, 2.1, 1, -5, 1, -7
> Cc1cc(C)c(S(=O)(=O)Nc2ccccc2C(=O)OCC(=O)NCc2ccccc2)c(C)c1
  -8, 2.7, -17, 4, 5, -9
> COC(=O)[C@]1(Cc2ccccc2)N[C@H](CN(C)S(=O)(=O)c2ccc(-c3ccccc3)cc2)[C@@H]2C(=O)N(C)C(=O)[C@@H]21
  33, 1.1, -5, -8, ., .
> COc1cccc(CNC(=O)N2CCN(S(=O)(=O)c3ccc(C)cc3)CC2)c1
  6, -0.7, 0, 7, -8, 1
> COc1ccc(C(NC(C)=O)c2ccc3cccnc3c2O)c(OC)c1 (configuration not stated)
  2, -0.6, ?, ?, 10, 13
> O=C(CCN1CCN(S(=O)(=O)c2ccc(F)cc2)CC1)Nc1ccccc1F
  -2, -1.2, 1, 1, 5, -9
> Cc1ccc(Cl)cc1NC(=O)C1CCCCC1C(=O)O (configuration not stated)
  0, -0.5, 7, 5, 5, 2
> O=C(CN(Cc1ccco1)C(=O)CNS(=O)(=O)c1ccc(F)cc1)NCCc1ccccc1
  -14, -0.9, 7, -5, -18, -15
> Cc1nnc(N2CCCC(C(=O)NCc3ccccc3F)C2)c2nn(-c3ccccc3)c(C)c12 (configuration not stated)
  22, -0.1, -3, 0, -32, -5
> O=C(Nc1ccccn1)c1ccc(C(=O)Nc2ccccn2)cc1
  -3, -0.5, 14, -2, -6, -3
> Clc1ccccc1CN1CCN(c2ncccn2)CC1
  -6, 0.3, -4, -4, -31, 59*
> Cc1cc(C)c(S(=O)(=O)c2ccccc2C)c(N(C)C)n1
  18, 0.7, 2, 0, 5, -3
> COc1ccc(NC(=O)CN(C)C(=O)Cc2ccc(S(=O)(=O)N3CCOCC3)s2)cc1
  -3, 0.0, -10, 0, 13, 11
> O=C(O)CCCC(=O)NCCc1ccncc1
  -14, 0.4, 3, 8, -27, -15
> O=C(c1nc2n(n1)C(c1ccc(Cl)cc1)C=C(c1ccccc1)N2)N1CCOCC1 (configuration not stated)
  -12, 8.7, -1, -2, -12, -24
> COc1ccc(NC(=O)/C=C/C(=O)O)c([N+](=O)[O-])c1
  28, -0.2, 0, 4, 8, -3
> CCOC(=O)c1sc(-c2ccccc2)cc1NC(=O)CSc1nnnn1C
  2, 4.4, 5, 0, 9, 2
> Cc1cc(C)c2oc(C(=O)N(Cc3ccccc3)c3ccccn3)cc(=O)c2c1
  6, 2.1, -3, 6, ., -4
> CCOC(=O)C1CCN(C/C=C/c2ccccc2[N+](=O)[O-])CC1
  -2, -0.2, -12, 21, 1, -13
> CCOc1ccc(N2CC(C(=O)NCCc3c[nH]c4ccc(C)cc34)CC2=O)cc1 (configuration not stated)
  0, -1.1, 17, -13, 1, 4
> Cc1nc([N+](=O)[O-])cn1Cc1cccc2ccccc12
  9, -0.1, 9, -1, 9, -4
> COc1ccc(CC(=O)N(Cc2cc3cc(OC)ccc3[nH]c2=O)C(C)C)cc1
  -14, -0.3, 2, -8, 4, 4
> NC(=O)c1cc(-c2ccccc2)sc1NC(=O)CN1CCCCC1
  4, -0.4, 0, -10, -8, -5
> O=C(c1ccccc1)N1CCC(c2nc(-c3ccc(S(=O)(=O)NCC4CCCO4)cc3)no2)CC1 (configuration not stated)
  -11, -0.3, 7, -3, 8, 0
> CC(C)[C@H](NC(=O)OCc1ccccc1)C(=O)OCC(=O)NC1(C#N)CCCC1
  -8, 1.5, 3, 0, 7, -7
> c1ccc(-c2csc(Nc3ccc4c(c3)OCO4)n2)cc1
  ., -0.5, -28, ?, ., -1
> Cc1nonc1CC(=O)NC1CC(C)(C)Cc2c1cnn2-c1ccc(F)cc1 (configuration not stated)
  1, -0.1, 9, -1, -8, 5
> CCN(C(=O)CSc1nc(N)cc(=O)[nH]1)c1c(N)n(Cc2ccccc2)c(=O)[nH]c1=O
  4, 0.0, -5, -8, -7, 15
> C[C@H](O)[C@H](O)[C@H]1CNc2nc(N)[nH]c(=O)c2N1
  -4, -1.0, -8, 5, 2, 5
> Cc1occc1C(=O)N/N=C/c1sc(N2CCOCC2)nc1-c1ccccc1
  ?, -0.3, -15, 12, -26, -3
> O=C(N/N=C/c1c[nH]c2ccc(Br)cc12)c1ccncc1
  14, -0.2, -25, -18, -14, -24
> CCOc1ccc(CC(=O)NC2CCN(Cc3ccccc3)CC2)cc1
  7, -0.2, 5, 0, 3, -4
> CCOc1ccc(OCC)c(NC(=O)CCNS(=O)(=O)c2cc(Br)cnc2N)c1
  3, -0.9, 3, 0, -3, 0
> COC(=O)c1ccc(COc2ccc(C)c(C)c2)o1
  -30, 3.5, 26, 15, 8, 4
> CCCCOc1ccc(C(=O)N2CCNC(=O)C2CC(=O)OC(C)C)cc1 (configuration not stated)
  8, 0.0, 6, -5, -19, -3
> O=c1nc(NO)ccn1C1CCCO1 (configuration not stated)
  1, -0.6, 11, -2, ., -8
> Cc1ccc(NC(=O)c2cc3c(s2)CCCC3)cc1
  0, 0.8, 10, 1, -12, -5
> CCCOc1ccc(CNC(=O)c2ccc3nc(N4CCOCC4)sc3c2)cc1
  3, -0.4, 7, -4, 0, -12
> O=C(COC(=O)c1cccc(S(=O)(=O)N2CCCCCC2)c1)Nc1ccccc1
  -4, 1.5, 7, -8, -1, -1
> Cc1ccc(CNC(=O)C2(S(=O)(=O)c3ccc(C)cc3)CC2)cc1
  -13, 2.5, 2, 3, 16, -5
> CC(=O)N1c2ccc(S(=O)(=O)NCCC(=O)Nc3cccc(Cl)c3)cc2CC1C (configuration not stated)
  -7, -0.1, -8, 0, 1, -24
> COc1ccc(C(=O)c2cn(-c3cccc(Br)c3)nc2C(C)=O)cc1
  10, 0.9, 3, -2, ., -4
> CC(O)(c1cccc(F)c1)c1nc(-c2ccc3c(c2)OCO3)cs1 (configuration not stated)
  -10, 0.5, 0, 0, ., -9
> CCOc1cc(NC(=O)Nc2ccccc2)c(OCC)cc1NC(=O)CC
  ., ., ., 0, 13, ?
> O=c1cc(O)c(-c2cccc(Cl)c2)c(Cl)[nH]1
  -4, 0.7, 7, 6, 4, -12
> CSc1ccccc1NC(=O)COC(=O)c1ccccc1Cc1ccccc1
  22, 3.8, 31, 47, -10, -3
> O=C(NC(=S)Nc1ccc(Cc2ccncc2)cc1)c1ccccc1Cl
  7, 0.7, -4, 0, 3, -3
> O=C(Nc1ccccc1N1CCCC1)c1cccnc1
  20, 0.7, -1, 4, 12, 7
> Cc1ccc(OCCn2c(=O)cnc3ccccc32)cc1
  20, -0.4, 10, 2, 5, -7
> COc1ccc(NS(=O)(=O)c2cccc(N/C(=N\S(=O)(=O)c3ccccc3)c3ccc(F)cc3)c2)cc1
  21, 1.7, 0, 1, 1, -3
> O=C(NCc1ccc2c(c1)OCO2)c1ccc(N2C(=O)C3CCCCC3C2=O)cc1 (configuration not stated)
  3, -0.4, 0, 12, 3, 0
> Cc1cc(C)n2nc(SC(C)C(=O)Nc3ccc(Cl)cn3)nc2n1 (configuration not stated)
  15, 0.1, 22, 6, 9, -4
> O=C(NCC(=O)N1CCOCC1)c1ccc(Br)cc1
  -16, 0.4, 1, 0, -4, -6
> O=S(Cc1ccccc1)c1ccccc1 (configuration not stated)
  38, 0.2, 5, -5, ., -10
> O=S(=O)(c1ccccc1)[C@@]1(c2ccccc2)C[C@@H]2ON=C(c3cccc(-c4ccccc4)c3)[C@@H]2C1
  14, 0.5, -5, -7, ?, -5
> O=C(/C=C/c1ncc(C(F)(F)F)cc1Cl)OCc1ccccc1
  4, 3.5, 3, 2, 30, -1
> Cc1ccccc1Cn1c(=N)n(CC(O)c2ccco2)c2ccccc21 (configuration not stated)
  9, -0.8, 2, -13, -6, 3
> COc1cc(OC)cc(C(=O)OCC(=O)NC2CCCCCC2)c1
  -1, 1.5, 5, 4, -18, -1
> COc1ccc(NC(=S)NC(NC(=O)c2ccccc2Cl)C(Cl)(Cl)Cl)c([N+](=O)[O-])c1 (configuration not stated)
  22, 0.6, 6, -19, 8, -14

D2 potentiator, entries above that show a hit.
SMILES	TRPML1 blocker	CtBP-E1A blk	Six1-Eya2 blk	D2 potentiator
Clc1ccccc1CN1CCN(c2ncccn2)CC1	-6	-4	-4	59*

Next section
Results follow in this order: TRPML1 blocker, TRPML1 ag, CtBP-E1A blk, Six1-Eya2 blk, TRPV1 PAM, D2 potentiator
> C/C(=N\NC(=O)c1cc(-c2ccccn2)nc2ccccc12)c1cccc([N+](=O)[O-])c1
  7, -0.5, -12, 16, 26, -4
> CCOC(=O)N1CCN(S(=O)(=O)c2ccc(C(=O)Nc3ccc(F)cc3F)cc2)CC1
  1, 0.0, 12, 5, 4, -17
> Cc1ccc(NS(=O)(=O)c2c(C)[nH]c(C)c2C(=O)N2CCCCC2)c(C)c1
  28, -0.4, 0, -1, 10, -6
> COc1ccc(C)cc1NC(=O)COC(=O)c1c(C)nn(-c2ccccc2)c1C
  -7, 2.6, -1, 3, -2, 0
> CC(C)OC(=O)c1cccc(NC(=O)CSc2nnc(N)s2)c1
  -9, -0.2, 5, 1, 5, 13
> COc1cc(S(=O)(=O)N2CCN(Cc3ccc4c(c3)OCO4)CC2)c(C)cc1C
  -6, 2.8, -16, -24, 2, -5
> O=C(CCn1c(=O)c2ccccc2n(CC(=O)NCCC2=CCCCC2)c1=O)NCc1ccco1
  -8, -0.4, -1, -3, -15, -4
> Cc1cccc(NS(=O)(=O)c2c(C(=O)N3CCCC3)c(C)n(C)c2C)c1
  4, 0.0, -17, 1, 10, -2
> NC(=O)NC(=O)CC1S/C(=N/N=C2\CSC(=O)N2)NC1=O (configuration not stated)
  3, 0.2, -93*, -90*, 4, -2
> CCC(Cc1ccccc1)OC(=O)c1ccccc1C(=O)O (configuration not stated)
  30, 0.0, 2, 5, ., 2
> Cc1cc(O)c(C(C[N+](=O)[O-])c2ccc(Cl)cc2Cl)c(=O)o1 (configuration not stated)
  -2, 0.5, -15, -2, 1, -6
> CN(C)C(CNC(=O)c1cccc(S(=O)(=O)NCc2ccccc2)c1)c1ccccc1 (configuration not stated)
  3, 0.1, 5, -9, -8, -8

3 compounds from above, sorted by the value under D2 potentiator, largest number first:
smiles | D2 potentiator
CC(C)OC(=O)c1cccc(NC(=O)CSc2nnc(N)s2)c1 | 13
Cc1cccc(NS(=O)(=O)c2c(C(=O)N3CCCC3)c(C)n(C)c2C)c1 | -2
CCOC(=O)N1CCN(S(=O)(=O)c2ccc(C(=O)Nc3ccc(F)cc3F)cc2)CC1 | -17

Screening data (PubChem BioAssay)
